# High-throughput results deposited in PubChem BioAssay by several laboratories.
# FGF22 binding: binders of recombinant human FGF22 by thermal shift | Q9HCT0 | SYPRO orange fluorescence; percent of sucrose octasulfate shift, DMSO zero | calls only at 9.99 µM | 340,000 compounds, 1.5% hits | AID 651658;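 active = melting point raised past a set limit in the mean and every replicate; three in four hits are not shown here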
# E coli growth: E. coli growth inhibition; 330,000 compounds, 0.21% hits; Escherichia coli growth, OD600, 23 h; active compounds read low; OD600 absorbance (no concentration beside the values);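 active = OD600 absorbance below the run mean of sample wells minus 3.6 SD, in any replicate, cut at about 0.56 in these data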;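 also: stock transfer was 300 nL into about 60 µL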
# Beta2AR agonist: agonists of human beta-2 adrenergic receptor inducing internalization; P07550; Am2.2-beta2AR cells, FAP receptor internalization, flow cytometry; reference of the scale not given here; response, % (concentration not given with the values); 340,000 compounds, 0.43% hits;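 active = response above a set limit, near 3 SD of response in nonfluorescent compounds, cut at about 42% in these data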;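 also: stock transfer was 100 nL into about 11 µL; a reference agonist was the positive control; negative values mostly stem from fluorescent compounds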
# Target sequence (P07550 whole entry, looked up): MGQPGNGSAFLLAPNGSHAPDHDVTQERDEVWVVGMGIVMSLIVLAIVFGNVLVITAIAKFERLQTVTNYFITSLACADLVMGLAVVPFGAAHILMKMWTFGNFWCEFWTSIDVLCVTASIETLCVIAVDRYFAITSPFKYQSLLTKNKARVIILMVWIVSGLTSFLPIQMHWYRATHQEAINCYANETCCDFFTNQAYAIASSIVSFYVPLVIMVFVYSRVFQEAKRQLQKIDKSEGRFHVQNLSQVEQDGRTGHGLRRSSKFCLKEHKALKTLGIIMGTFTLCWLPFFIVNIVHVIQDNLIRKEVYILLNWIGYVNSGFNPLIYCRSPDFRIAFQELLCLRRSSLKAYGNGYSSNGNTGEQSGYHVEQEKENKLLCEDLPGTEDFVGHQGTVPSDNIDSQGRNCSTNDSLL
# UCH37 inh: inhibitors of human deubiquitinating enzyme UCH37; 330,000 compounds, 0.33% hits; inhibition, % (no concentration beside the values); purified proteasome/UCH37, Ub-AMC cleavage fluorescence;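 active = mean of two replicates above 20%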;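 also: 0% = compound-free wells with enzyme and 100% = wells lacking proteasome; stock transfer was 100 nL into about 20 µL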
#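 Material: human UCH37 enzyme supplied as purified proteasome complex. Measure: % inhibition of Ub-AMC cleavage fluorescence. Medium: pH 7.4 Tris-HCl (50 mM) with ovalbumin, ATP-MgCl2, DTT. Times: 30 min preincubation with enzyme, 25 min cleavage at room temperature. Detection: AMC fluorescence intensity at 355/460 nm.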
# rRNA inh HTS: inhibitors of bacterial rRNA selective over humanized ribosomes. E. coli WT GFP vs humanized-ribosome RFP mutants, fluorescence, 24 h; active compounds read low; DMSO median 0, no signal -100. 350,000 compounds, 1.6% hits. GFP signal change (wild-type ribosome), % (test concentration not listed). AID 720706;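 active = significant combined selectivity score with lowered wild-type GFP, culture density cut under 30%, mutant RFP and density less affected; inactive = any of these conditions unmet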; also: one replicate is shown; some compounds called inactive have numbers as strong as hits
# ALR inh: blocks human ALR sulfhydryl oxidase activity | P55789 | purified ALR, DTT oxidation, H2O2 HRP-luminol luminescence | inhibition, % (no concentration beside the values) | 290,000 compounds, 3.8% hits | AID 485317;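 active = mean and each replicate at 75% or more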;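 also: stock transfer was 7.5 nL into about 7.5 µL; 0% = neutral wells and 100% = wells with inactivated enzyme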
# HNF4A DNA FP: change in binding of human HNF4 alpha to DNA; activity change, % at 10 µM; HNF4a-FITC DNA binding, fluorescence polarization, 1 h; 360,000 compounds, 0.3% hits; P41235; AID 1224865; in the data active = activity change above about 30%, passing the limit was not always enough;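 also: controls were the assay level and a saturating level of protein; the project sought stronger binding though the title names inhibitors; some compounds called inactive have numbers as strong as hits; positive values seem to mean higher polarization but the record does not say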
# Target sequence (P41235 whole entry, looked up): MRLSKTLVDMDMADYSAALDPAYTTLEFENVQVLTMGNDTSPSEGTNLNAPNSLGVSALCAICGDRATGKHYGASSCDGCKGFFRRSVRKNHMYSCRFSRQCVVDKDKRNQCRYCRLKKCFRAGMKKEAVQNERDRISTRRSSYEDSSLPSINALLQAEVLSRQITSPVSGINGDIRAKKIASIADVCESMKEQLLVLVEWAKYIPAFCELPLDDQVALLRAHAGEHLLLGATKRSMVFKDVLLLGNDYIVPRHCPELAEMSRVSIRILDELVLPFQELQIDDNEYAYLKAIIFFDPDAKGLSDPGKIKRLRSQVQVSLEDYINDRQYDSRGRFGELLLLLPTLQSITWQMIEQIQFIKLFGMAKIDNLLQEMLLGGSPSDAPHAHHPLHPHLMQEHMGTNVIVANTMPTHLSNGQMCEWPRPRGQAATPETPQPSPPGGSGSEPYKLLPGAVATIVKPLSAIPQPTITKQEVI
# rRNA inh HTS OD600: recorded beside rRNA inh HTS, whose call it bears; OD600 change, %; measured here: OD600 growth;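 optical density of the mix in the first replicate; 0 = DMSO median and -100 = no signal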
# rRNA inh HTS RFP: also measured in rRNA inh HTS; calls as there; RFP signal change, %; measured here: RFP humanized mutant strains;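 first replicate; 0 = DMSO median and -100 = no signal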
# * marks the source's active call; other numbers are inactive results; i = inactive; nt = no result given. Some of the compounds tested; the hit share may differ from the screen's.
SMILES,rRNA inh HTS,E coli growth,HNF4A DNA FP,Beta2AR agonist,UCH37 inh,ALR inh,rRNA inh HTS OD600,FGF22 binding,rRNA inh HTS RFP
O=C(c1ccc(F)cc1)N1CCN(C(=O)c2ccc([N+](=O)[O-])cc2)CC1,10,0.75,-2.7,4,4.0,3,8,nt,0.3
CCOC(=O)c1ccc(NC(=O)NCCN2CCCCC2)cc1,nt,0.73,1.1,0,2.2,nt,nt,nt,nt
O=C(NNC(=S)Nc1ccc(Br)cc1)c1ccc(N2CCOCC2)c([N+](=O)[O-])c1,nt,0.68,-2.7,1,0.7,22,nt,nt,nt
CC(=O)Nc1ccc(C(=O)OCC(=O)N(Cc2ccccc2)C(C)(C)C)cc1,-8,0.75,0.5,1,2.1,-5,-16,nt,1.5
COC(=O)c1ccccc1Oc1nc(Cl)cc(OC)n1,nt,0.67,0.6,-6,0.3,-1,nt,nt,nt
CCOC(=O)C1(Cc2cccc(OC)c2)CCN(Cc2cnc(N)nc2)CC1,8,0.7,-0.5,-2,-0.6,-12,7,i,-0.4
COc1ccc(/C=N/OCC(=O)N2CC3(C)CC2CC(C)(C)C3)cc1OC (stereo not drawn),nt,nt,0.7,5,nt,-4,nt,nt,nt
CN1CCN(C(=O)C23CCC(C)(C(=O)C2Br)C3(C)C)CC1 (stereo not drawn),16,0.71,1.5,2,-0.2,nt,-3,i,0.7
c1ccc(CCOn2ccnc2)cc1,4,0.65,-0.7,0,0.6,-2,3,i,-0.8
Cn1c(=O)c2cc(NC(=S)NCc3ccccc3F)ccc2n1Cc1ccc(F)cc1,2,nt,-1.7,nt,nt,nt,-19,i,-0.2
COc1ccc(CCNC(=S)Nc2cccc3ccccc23)cc1,nt,0.74,0.6,-6,3.4,-5,nt,nt,nt
CCC[C@@H](CN1CCC[C@H]1CN1C(N)=NC[C@H]1C(C)C)N1C[C@@H](Cc2ccccc2)N(CCCC2CCCC2)C1=N,-34,0.61,-3.0,7,4.0,-3,-79,i,-23
CCOC(=O)c1cnn(-c2nc(-c3ccccc3)cs2)c1C(F)(F)F,nt,0.74,nt,-4,-12,-25,nt,nt,nt
CC(C)(C)c1cc(C(c2cccnc2)N2CCN(CCO)CC2)cc(C(C)(C)C)c1O (stereo not drawn),-30*,0.67,-0.6,62*,4.2,37,-6.5*,i,2.8*
COc1ccc(CC(=O)Nc2ccc(N3CCOCC3)cc2)cc1OC,4,0.67,1.2,-7,-0.6,13,7,i,0.0
CCOC(=O)c1c(C)nn(-c2ccc(NC(=O)c3cccs3)cc2)c1C,-8,0.66,-4.7,17,3.3,-10,-17,i,4.4
Clc1ccc(NCc2cccnc2)c(Cl)c1,-12,0.65,-2.2,-24,1.4,62,-16,i,-1.6
C1CSC2(N1)C1CC3CC(C1)CC2C3 (stereo not drawn),nt,0.72,2.0,4,3.0,-5,nt,nt,nt
Fc1ccc(NC(=S)NCc2cccs2)cc1,nt,0.67,-3.1,0,5.4,nt,nt,nt,nt
CC(C)(C)n1nnnc1C(c1ccccc1)N1CCN(C/C=C/c2ccccc2)CC1 (stereo not drawn),-39,nt,-0.7,nt,nt,nt,-50,i,0.6
O=C(OCc1cccc([N+](=O)[O-])c1)c1cc(=O)[nH]c2ccccc12,nt,0.71,nt,nt,4.1,-8,nt,nt,nt
COc1ccc(OC)c(CCNC(=O)c2cccc(NC3=NC4CS(=O)(=O)CC4S3)c2)c1 (stereo not drawn),2,0.7,-2.4,-2,0.1,-4,2,i,-5.8
CCCSc1nc2c(cnn2-c2ccccc2)c(=O)n1N,-19*,0.66,2.4,-1,2.9,-1,0.0*,i,2.7*
CCc1ccc2c(COC(=O)C3CC(=O)N(CCc4ccccc4)C3)cc(=O)oc2c1 (stereo not drawn),6,0.68,-2.4,3,1.4,nt,7,i,0.6
CCO[C@@H]1OC(C(=O)NC2CC2)=C[C@H](c2ccccc2)[C@H]1CCCO,9,nt,-1.4,-1,2.5,nt,11,i,-2.1
O=C(Nc1ccccc1Br)C1CCC(=O)N1Cc1ccccc1Cl (stereo not drawn),nt,0.71,3.4,-2,1.3,-3,nt,nt,nt
COc1ccc(S(=O)(=O)N2Cc3ccccc3CC2C(=O)Nc2nccs2)cc1OC (stereo not drawn),nt,0.75,1.2,6,1.9,nt,nt,nt,nt
Oc1ccc(C[C@H]2CNC(=S)N2CC2CCCN2C[C@H](Cc2ccc(O)cc2)N2C[C@H](Cc3ccc(O)cc3)N(CC3CCCCCC3)C2=S)cc1 (stereo partly drawn),0,nt,0.4,26,nt,nt,8,i,8.9
O=C(NCCOc1ccc(Cl)cc1)C1CCCCC1,-12,0.71,3.4,-5,4.3,8,-5,i,-3.1
CCOC(=O)c1csc(NC(=O)C2=COCCO2)n1,13,0.7,0.6,13,4.6,-2,19,i,0.1
O=C(NNC(=O)C1C2CCCCC21)c1coc(=O)c(Br)c1 (stereo not drawn),10,0.64,-3.8,0,-26,31,-3,i,0.8
COc1cccc(-c2ccc(C3=CC(=O)CC(C)(C)C3=O)cc2)c1OC,-10,nt,-2.2,nt,nt,nt,-23,i,-2.5
Cc1nn(-c2ccc(Cl)cc2)c(Cl)c1/C=C(\C#N)C(N)=O,9,nt,3.4,5,nt,nt,11,i,5.0
COc1ccc(N(C(=O)c2ccco2)C(C(=O)NC2CCCC2)c2cccs2)c(OC)c1 (stereo not drawn),-1,0.71,1.4,1,1.4,-5,-6,i,-1.5
CC12CCC(=O)N1C(C(=O)N1CCN(S(=O)(=O)c3cccc(C(F)(F)F)c3)CC1)CS2 (stereo not drawn),7,nt,-0.6,-6,nt,nt,19,i,-1.2
Oc1ccccc1C=NCCCCCCN=Cc1ccccc1O,9,0.68,1.1,7,3.4,-7,-1,i,-3.3
O=C(N/N=C\c1cn(-c2ccccc2)nc1-c1ccccc1)c1ccc2c(c1)OCO2,nt,nt,0.3,-2,nt,1,nt,nt,nt
CC(=O)N1CCN(CC(=O)Nc2c(Cl)cc(Cl)cc2Cl)CC1,-6,0.7,1.7,2,3.2,0,-1,i,2.2
O=C(O)c1ccc(-n2cccc2)cc1O,nt,0.67,2.8,1,0.6,-3,nt,nt,nt
C/C(CC(=O)NCc1ccco1)=N\NC(=O)Cc1ccccc1,nt,nt,-0.3,-1,nt,7,nt,nt,nt
S=C(c1ccccc1)N1CCCc2ccccc21,nt,0.65,-2.6,17,1.3,-7,nt,nt,nt
O=C(NCC1CCOCC1)c1ccc(OC2CCN(Cc3ccccn3)CC2)cc1,10,0.68,0.6,-7,0.8,-8,7,i,0.6
CC1=C(/C=C/C(C)=C/C=C/C(C)=C/C(=O)O)C(C)(C)CCC1,5,nt,-0.8,10,5.0,14,3,i,3.5
COc1cc(C(=O)NCc2ccc(S(N)(=O)=O)cc2)ccc1OCC(=O)N1CCOCC1,8,0.66,-2.0,-5,3.1,nt,13,i,-0.4
CC(=O)N1c2ccc(S(=O)(=O)N(C)CC(=O)NCc3ccc(C)cc3)cc2CC1C (stereo not drawn),8,0.66,-3.2,2,3.6,-1,13,i,0.1
O=C(COC(=O)c1cc(Cl)ccc1Cl)Nc1ccc2[nH]c(=O)[nH]c2c1,-2,0.61,0.4,3,-4.5,-4,7,i,-2.8
N#Cc1ccc(C(=O)OCC(=O)N2CCN(C(=O)c3ccco3)CC2)cc1,5,0.7,1.3,-4,-1.2,-12,-3,i,-2.5
CC(Oc1ccccc1)C(=O)Nc1ccc(S(=O)(=O)N2CCN(C)CC2)cc1 (stereo not drawn),1,0.68,-1.5,-8,0.8,-18,1,i,-0.5
Cc1ccc(NC2CC(C)NC(=S)N2)cc1 (stereo not drawn),19,0.68,-0.1,3,3.5,42,14,i,0.7
COc1ccc(C(=O)Nc2ccc(Cl)cn2)cc1S(=O)(=O)N1CCCC1,-6,0.67,-1.5,-7,1.1,5,-20,i,3.0
COc1ccc(NC(C)=O)cc1S(=O)(=O)Nc1ccc(C(=O)N2CCCC2)cc1,5,0.71,-5.0,-6,0.3,-3,1,i,1.4
COc1ccc(CCNC(=O)COC(=O)C2CC2C)cc1OC (stereo not drawn),4,0.68,5.7,-2,-1.9,0,10,i,-2.2
CCOC(=O)c1c(C)[nH]c(NC(=O)N2CCOCC2)c1C,nt,0.66,-0.4,14,0.8,-14,nt,nt,nt
COCCCn1c(C)nnc1SCC(=O)Nc1ccc(C(C)=O)cc1,5,0.66,7.7,1,2.7,-12,7,i,-0.4
COc1cccc(/C=C2\Oc3cc(OC(=O)N4CCOCC4)ccc3C2=O)c1,12,0.64,-3.0,5,1.8,1,2,i,-1.8
Cc1ccnc(NC(=O)c2ccc3c(c2)C(=O)N(CC(C)C)C3=O)c1,1,0.68,0.6,-6,-1.0,-9,6,i,-2.3
CC1(C)CNC(=O)c2sc(N3CCCCC3)nc2C1,nt,0.7,5.3,-7,4.4,-36,nt,nt,nt
N#Cc1ccc(CN2CCN(C(=O)C3CC(=O)N(c4ccccc4F)C3)CC2)cc1 (stereo not drawn),8,0.65,-0.1,-4,0.1,1,6,i,-0.7
Cc1ccc(NC(=O)Cc2cccs2)cc1Cl,-5,0.65,-2.3,-2,4.8,-8,-1,i,5.3
CN1C(=O)NC(c2cccc([N+](=O)[O-])c2)C2=C1CCCC2=O (stereo not drawn),7,0.69,-1.2,-6,5.5,-33,9,i,0.6

# Next section:
SMILES,rRNA inh HTS,E coli growth,HNF4A DNA FP,Beta2AR agonist,UCH37 inh,ALR inh,rRNA inh HTS OD600,FGF22 binding,rRNA inh HTS RFP
Cc1ncc(CO)c2cc(S(=O)(=O)c3ccc(F)cc3)c(=O)oc12,4,0.74,0.2,10,4.7,11,6,i,3.0
NS(=O)(=O)c1ccc(CNC(=O)c2ccncc2)cc1,5,0.69,-1.7,-3,1.0,-10,14,i,1.2
Cc1ccc(S(=O)(=O)c2cn(C)c3cc(N4CCOCC4)c(F)cc3c2=O)cc1,6,0.72,2.5,5,-50,-2,17,i,0.2
CCOC(=O)c1[nH]c(C)c(C(=O)OCC(=O)N(Cc2ccccc2)C(C)C)c1C,-20,0.69,2.9,4,5.6,1,-43,i,0.9
COc1cc(C(=O)O[C@H]2C/C(C)=C/CC[C@]3(C)O[C@@H]3C(O)C2C(C)C)cc(OC)c1OC (stereo partly drawn),5,nt,3.0,7,nt,-14,16,i,3.2
COc1ccc(Cn2c(S(=O)(=O)CC(N)=O)nc3ccccc32)cc1[N+](=O)[O-],nt,0.69,nt,nt,2.6,-4,nt,nt,nt
